# High-throughput results as filed in PubChem.
# miR-21 reporter – qHTS Assay for Modulators of miRNAs and/orActivators of miR-21 | AID 2288, 2010 | Potency, µM (top dose mostly 38.3 µM), inactives show at the top dose reporter change, positive = more light | HeLa miR-21 FLuc reporter, luciferase, 48 h | 340,000 tested, under 10 active; active = well fitted rising curve with a large enough effect; inconclusive = small, poorly fitted or top-dose-only effect; inactive = no such curve, though single readings can be large or run the other way;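 also: % of control where 0% means no effect; miR-21 action dims this reporter so a rising signal means less miR-21 action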
#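 HeLa cells endogenously expressing miR-21, stably carrying CMV-driven firefly luciferase with a downstream miR-21 binding site, 2000 cells/well. Titrations up to approximately 40 uM, 48 hours; luciferase luminescence read.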
# GLA inh pH 4.5 – qHTS Assay for Inhibitors of Human alpha-Galactosidase at pH 4.5; AID 1467, 2008; activity change, negative = inhibition, % at 105 µM; Alpha-galactosidase A (Homo sapiens), P06280; purified enzyme, 4-MU-alpha-Gal fluorescence, pH 4.5; 230,000 tested, under 10 active; inconclusive = small, poorly fitted or top-dose-only inhibition, or a rising curve; inactive = flat fitted curve, though single readings scatter; no compound was filed as active;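 also: 0% = full activity with enzyme and -100% = basal without enzyme; dose as in the result columns while the protocol names 77 µM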
# Rango release inh – qHTS Assay for Inhibitors of RanGTP induced Rango (Ran-regulated importin-beta cargo) - Importin beta complex dissociation; Snurportin-1 (Homo sapiens) + GTP-binding nuclear protein Ran (Homo sapiens) + Importin …; Biochemical FRET Rango-importin beta, RanGTP-induced dissociation; Potency, µM (highest dose often 46.1 µM), inactives show at the top dose activity change, negative = inhibition; hit rate 0.071% among 340,000; active means falling FRET ratio curve, often poorly fitted, with flat reads before Ran was added; inconclusive means other falling curves, or compound fluorescence or quenching; inactive means flat or rising ratio curve;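 also: potency is read from the fitted curve at half-maximal effect; % of control where 0% means no effect; nearly all actives have a fitted effect of over 45% in size; -100% = wells without RanGTP and RCC1; the record marks most hits as doubtful in a second field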
#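 FRET read at 45 min, room temperature: inhibitors block the CFP/YFP signal rise when RanGTP (0.6 uM Ran, 2 mM GTP, 0.2 uM RCC1) frees Rango (0.1 uM) from importin beta (0.25 uM). Pre-read after 5 min compound exposure flags interference.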
# Rango-impB inh – qHTS Assay for Inhibitors of Rango (Ran-regulated importin-beta cargo) - Importin beta complex formation. Potency, µM (titrated, usually from 92.2 µM), inactives show at the top dose inhibition of complex formation. AID 540263, 2011. Rango CFP/YFP FRET sensor + importin beta, 45 min. hit rate 0.031% among 340,000. Importin subunit beta-1 (Homo sapiens), Q14974; active = rising FRET ratio curve, often small or poorly fitted; inconclusive = mostly compound fluorescence or quenching in the first reads; inactive = flat curves in all reads;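 also: potency is read from the fitted curve at half-maximal effect; 0% = DMSO wells and 100% = buffer wells lacking importin beta; nearly all actives have a fitted effect of over 15% in size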
# Target sequence (Q14974 whole entry, looked up): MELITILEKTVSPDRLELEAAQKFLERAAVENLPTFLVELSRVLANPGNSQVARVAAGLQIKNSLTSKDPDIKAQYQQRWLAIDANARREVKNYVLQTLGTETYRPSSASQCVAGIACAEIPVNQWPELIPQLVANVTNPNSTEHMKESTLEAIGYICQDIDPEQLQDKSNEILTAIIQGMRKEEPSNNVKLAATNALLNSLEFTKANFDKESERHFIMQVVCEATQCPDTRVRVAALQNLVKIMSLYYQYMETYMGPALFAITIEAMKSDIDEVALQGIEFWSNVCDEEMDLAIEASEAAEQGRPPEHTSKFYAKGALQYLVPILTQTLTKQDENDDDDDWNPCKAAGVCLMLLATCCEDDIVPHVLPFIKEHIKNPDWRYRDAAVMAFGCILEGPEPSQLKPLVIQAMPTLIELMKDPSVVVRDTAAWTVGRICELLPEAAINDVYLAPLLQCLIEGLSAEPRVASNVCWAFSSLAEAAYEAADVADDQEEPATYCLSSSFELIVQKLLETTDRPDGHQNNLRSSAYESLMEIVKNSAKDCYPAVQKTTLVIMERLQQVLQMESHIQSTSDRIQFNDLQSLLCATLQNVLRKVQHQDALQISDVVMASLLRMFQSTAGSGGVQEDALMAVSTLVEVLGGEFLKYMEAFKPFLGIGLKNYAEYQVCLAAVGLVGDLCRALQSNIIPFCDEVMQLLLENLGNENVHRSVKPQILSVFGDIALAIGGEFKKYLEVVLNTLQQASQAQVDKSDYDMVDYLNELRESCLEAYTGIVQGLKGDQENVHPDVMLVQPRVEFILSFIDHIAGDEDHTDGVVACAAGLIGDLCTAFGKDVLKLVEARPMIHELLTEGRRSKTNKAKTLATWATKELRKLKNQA
#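 FRET biosensor (snurportin 1 IBB flanked by EYFP and cerulean), 50 nM, with compound 5 min, then 0.125 microM importin beta in PBS, 1 mM DTT, 0.02% Tween-20, 0.1% BSA. CFP/YFP ratio read after 45 min at room temperature; pre-read flags interference.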
# An asterisk follows results filed as active; ? = inconclusive; / = no result given; [ ] = remark or other dose. Only part of the results is shown; rates above refer to the full screens.
GLA inh pH 4.5	Rango release inh	Rango-impB inh	Compound	miR-21 reporter
3.2	8.2%	-2.9%	O=C(Nc1cccnc1)Nc1ccccc1Cl	-21.0%
/	-10.8%	5.3%	COC(=O)c1ccc(Cn2nc(-c3ccccc3)ccc2=O)cc1	-11.7%
-6.8	6.9%	-3.7%	Cc1cc2c3c(c1)C1(SCC(=O)N1c1ccc(F)cc1)C(=O)N3C(C)(C)CC2C (configuration not stated)	10.3%
/	12.7%	0.4%	O=C(COC(=O)C(Cc1ccccc1)NC(=O)c1cccs1)NCc1ccccc1 (configuration not stated)	/
/	14.0%	-0.3%	O=S(=O)(c1ccc(F)cc1)N1CCN(CCc2ccccc2)CC1	3.9%
1.8	-13.4%	3.8%	COc1ccc(OC)c(-n2cnc3cc(C(=O)O)ccc32)c1	-3.2%
1.4	10.3%	-5.3%	CCOC(=O)CNC(=O)C1c2ccccc2C(=O)N(c2ccc(OC)cc2)C1c1ccc(OC)cc1 (configuration not stated)	-14.6%
/	-1.8%	2.4%	Cc1ccc(C)c(NC(=O)Cn2ccn(-c3ccc4c(c3)OCO4)c(=O)c2=O)c1	/
/	-10.2%	?	CCOc1cccc(C(=O)N2CCCN(C)CC2)c1	-2.8%
-0.9	-0.2%	9.8%	Clc1ccc(Cl)c(-c2nn3c(COc4ccccc4)nnc3s2)c1	1.0%
-0.7	1.9%	0.2%	Cc1ccccc1Cc1c(C)nc2c(C(=O)NCc3ccco3)cnn2c1C	-0.1%
-6.7	6.8%	5.1%	CCCCCC(=O)C(=O)c1ccc(O)cc1O	0.1%
/	-3.8%	-0.9%	O=C1NCC(c2ccccc2)(c2ccccc2)C(=O)N1	/
-1.9	11.2%	?	CC(=O)Nc1ccc(NS(=O)(=O)c2ccc(Cl)c(C(=O)O)c2)cc1	-4.2%
-13.9	9.8%	-0.1%	CCN(CC)CCCN(Cc1cc2cc3c(cc2[nH]c1=O)OCO3)C(=S)Nc1ccc(OC)cc1	-4.3%
-9.7	-22.6%	-3.9%	Clc1cccc(Oc2cnns2)c1Cl	-3.7%
/	-17.8%	0.0%	COc1ccc(O)c(C(=O)c2cnc3c(c2)c(C)nn3CCO)c1	-10.9%
/	?	?	COCCNC(=O)/C(C#N)=C/c1c(N2CCCCCC2)nc2ccccn2c1=O	-2.1%
-6.5	32.1%	-2.7%	O=C(N1CCOCC1)n1cnc2ccccc21	6.6%
/	-11.9%	4.3%	COc1cc(C)c(S(=O)(=O)NOCc2ccc([N+](=O)[O-])cc2)c(C)c1C	-6.7%
/	5.0%	-0.2%	C/C(=N\NC(=O)c1cccs1)c1ccc(C(=O)O)s1	-58.2%
-12.2	2.1%	0.3%	O=C(O)c1cccc(-n2nnnc2SCc2ccccn2)c1	-3.8%
-7.9	0.1%	-1.5%	O=C(NC1CCCCCC1)C1CCN(S(=O)(=O)c2ccccc2)CC1	-2.7%
/	37.4%	1.6%	CC(C)(C)c1ccc(C(=O)NCC2CCCN2S(=O)(=O)c2ccccc2)cc1 (configuration not stated)	/
-8.4	0.0%	-0.8%	O=C(Cc1ccc(Cl)cc1Cl)NCC1(N2CCOCC2)CCCCC1	-0.4%
0.8	-3.0%	-0.4%	Cc1ccc2nc(NC(=O)c3cc(-c4ccco4)nc4ccccc34)sc2c1	-9.3%
/	22.1%	-5.1%	COc1cccc(-c2sc3ccc(OC)cc3c2-c2ccc(C(N)=O)cc2)c1	/
?	?	?	COC(=O)C1=CN(CC2CCCO2)C=C(C(=O)OC)C1c1ccsc1 (configuration not stated)	2.4%
1.1	-14.5%	4.6%	Cc1ccc(-c2nc(C(Cl)Cl)c3ccccc3n2)cc1	-23.3%
3.0	-5.2%	-2.2%	O=C(O)CCC(=O)NCc1ccc(F)cc1	0.4%
/	0.9%	-4.6%	CCCN(CC(=O)Nc1ccccc1C)C(=O)CCCc1c[nH]c2ccccc12	/
-10.0	3.8%	-2.8%	CCN(CC)S(=O)(=O)c1cccc(C(=O)NC(Cc2c[nH]c3ccccc23)c2nnc3n2CCCCC3)c1 (configuration not stated)	-10.2%
-6.2	-22.9%	4.9%	O=S(=O)([N-]c1nc2ccccc2nc1-[n+]1ccc(Cc2ccccc2)cc1)c1ccc(Br)s1	?
/	7.5%	-0.4%	O=S(=O)(Cc1ccccc1)C(CCCc1ccccc1)S(=O)(=O)Cc1ccccc1	/
/	-3.7%	0.1%	COc1ccc(Cc2nc(-c3ccc(Br)cc3)no2)cc1	-25.4%
-2.6	0.7%	1.8%	COc1cc(C(C2=C(O)CC(C)(C)CC2=O)C2C(=O)CC(C)(C)CC2=O)cc(OC)c1OC (configuration not stated)	6.1%
/	0.7%	0.3%	CN(C(=O)c1cccc(NC(=O)Cc2cccc([N+](=O)[O-])c2)c1)C1CCCC1	/
/	-0.1%	-1.4%	COc1ccc(S(=O)(=O)n2c([N+](=O)[O-])cnc2C)c(C)c1C	1.1%
-6.1	13.1%	-4.6%	O=C(CSc1nncn1-c1ccccc1)NC1CCCc2ccccc21 (configuration not stated)	-6.0%
-4.7	1.0%	-1.5%	CSc1ccccc1C(=O)NCC(c1ccco1)N1CCCCC1 (configuration not stated)	-3.1%
0.6	6.1%	1.4%	S=C(NCC(c1cccnc1)N1CCOCC1)NC1CCCCC1 (configuration not stated)	-1.7%
-0.2	-2.4%	-2.6%	Cc1cc(C(=O)Cn2ncc(Cl)c(Cl)c2=O)c(C)n1CC(F)(F)F	?
2.1	2.9%	3.1%	Cc1cc(C)cc(NC(=O)c2cc(S(=O)(=O)NCc3ccco3)ccc2F)c1	12.9%
/	-7.5%	0.6%	O=C(OCc1ccc([N+](=O)[O-])cc1)C1CC(=O)N(Cc2ccccc2)C1 (configuration not stated)	/
3.5	4.7%	3.7%	Cc1oc(-c2cccs2)nc1CSCC(=O)NC1CC1	1.2%
-5.4	6.0%	6.1%	COc1cccc2sc(N(C)c3ccccc3)nc12	-28.7%
6.1	3.4%	2.2%	Cc1ccc(Nc2ncnc3c2cnn3C)cc1	-36.5%
-1.0	-14.7%	1.3%	Cc1c(Cl)c([N+](=O)[O-])nn1Cc1ccc(C(=O)N/N=C\c2ccccn2)o1	-6.8%
-4.8	-12.7%	1.3%	O=S(=O)(c1ccc2ccccc2c1)N1CCN(C2Cc3ccccc3C2)CC1	-7.6%
/	?	-4.7%	COc1cc(C(=O)Nc2cc3c(cc2N2CCCCC2)n(C)c(=O)n3C)cc(OC)c1OC	-6.3%
/	1.2%	-3.8%	COc1ccc(OC)c(NC(=O)CCC(=O)Nc2nnc(C(C)C)s2)c1	-2.7%
/	-4.7%	-3.9%	O=S(=O)(NCCO)c1ccc2c(c1)Cc1cc(S(=O)(=O)NCCO)ccc1-2	-6.7%
0.7	12.8%	-7.4%	Cc1ccc2[nH]c(=O)c(CN(CCc3ccccc3)C(=O)N3CCOCC3)cc2c1	-1.5%
/	-8.9%	0.9%	CCCCn1c(N)c(N(CCOC)C(=O)CSc2n[nH]c(-c3ccc(OC)cc3)n2)c(=O)[nH]c1=O	0.3%
/	11.8%	-3.0%	Cc1occc1C(=O)Nc1c(Cl)cccc1Cl	-12.4%
/	14.1%	2.7%	CCc1noc(C)c1C(=O)NC1CCCc2c1cnn2-c1cc(C)cc(C)c1 (configuration not stated)	-13.2%
-16.4	-17.0%	-1.2%	NC(=O)c1nn(-c2ccccc2)nc1NC(=O)CSc1nnnn1-c1ccc(Cl)cc1	4.2%
-6.7	2.7%	0.0%	O=C(/C=C/c1cccc([N+](=O)[O-])c1)NC1CC2CCC1C2 (configuration not stated)	-22.0%
-4.9	0.1%	0.8%	CC(C)(C)c1ccccc1OCCOCCSc1ncccn1	-12.0%
5.1	-10.7%	-2.3%	Nc1nonc1-c1noc(-c2ccc(Br)o2)n1	-21.8%

# Taken from above for reference:
GLA inh pH 4.5	Rango release inh	Rango-impB inh	Compound	miR-21 reporter
-6.7	2.7%	0.0%	O=C(/C=C/c1cccc([N+](=O)[O-])c1)NC1CC2CCC1C2 (configuration not stated)	-22.0%
-4.9	0.1%	0.8%	CC(C)(C)c1ccccc1OCCOCCSc1ncccn1	-12.0%
5.1	-10.7%	-2.3%	Nc1nonc1-c1noc(-c2ccc(Br)o2)n1	-21.8%

# More results.
GLA inh pH 4.5	Rango release inh	Rango-impB inh	Compound	miR-21 reporter
0.4[21.1 µM]	-5.4%	-0.7%	CCOC(=O)c1ccc(NC(=S)N2CCCC2c2ccc(OC)c(OC)c2)cc1 (configuration not stated)	-1.3%
2.1	-0.3%	2.2%	CC[N+]1(CC)CC2=Cc3c(ccc4ccccc34)CC2C1 (configuration not stated)	8.9%
-0.7	-25.9%	0.4%	O=C(c1ccc2c(c1)OCCO2)N1CCCCC1	-12.3%
-12.2	-16.2%	0.4%	CCc1cccc(CC)c1NC(=O)CN1C2CCCC1CC(NC(=O)Nc1cccc(OC)c1)C2 (configuration not stated)	4.5%
6.1	0.4%	-0.9%	Cc1ccc(C(=O)Oc2ccc(C(=O)COC(=O)c3cnccn3)cc2)cc1	-0.8%
/	-23.7%	-0.3%	COc1ccc2c(c1OC)C(=O)N1C2SC(C)(C)[C@H]1C(=O)NCCCOC(C)C (some centres not stated)	-3.7%
-4.0	-4.0%	-3.7%	O=C(NCc1ccco1)c1cccc(C(F)(F)F)c1	-1.0%
4.7	18.6%	-0.7%	Cc1cc(C(F)(F)F)nc(SCC(=O)NC2=NC(=O)C(C)S2)n1 (configuration not stated)	-4.3%
/	-15.5%	4.8%	O=C(CSc1ccccc1C(=O)O)c1ccc(Cl)cc1	-47.4%
3.1	-5.0%	3.9%	Cc1nc2ccccc2c2c1CC(C)S2 (configuration not stated)	-4.6%
-0.6	15.4%	-1.9%	COc1cc(CNCc2ccccn2)ccc1OCC(=O)NC(C)(C)C	1.4%
1.6	?	?	O=C(NCc1ccc2c3c(cccc13)C(=O)N2)c1cccs1	-11.0%
/	-1.5%	0.9%	CCC(C)NC(=O)c1ccc(C)c(NC(=O)C2=C(C)OCCS2)c1 (configuration not stated)	-0.6%
-2.8	-17.5%	-0.6%	NS(=O)(=O)c1ccc(CCNC(=O)Nc2ccc(Cl)c(Cl)c2)cc1	16.5%
-2.0	-1.4%	0.9%	Cc1ccccc1OCCCSc1nc2ccccc2[nH]1	-11.5%

# Compounds above that have a tert-butyl group (3):
GLA inh pH 4.5	Rango release inh	Rango-impB inh	Compound	miR-21 reporter
/	37.4%	1.6%	CC(C)(C)c1ccc(C(=O)NCC2CCCN2S(=O)(=O)c2ccccc2)cc1 (configuration not stated)	/
-4.9	0.1%	0.8%	CC(C)(C)c1ccccc1OCCOCCSc1ncccn1	-12.0%
-0.6	15.4%	-1.9%	COc1cc(CNCc2ccccn2)ccc1OCC(=O)NC(C)(C)C	1.4%

# (next part)
GLA inh pH 4.5	Rango release inh	Rango-impB inh	Compound	miR-21 reporter
/	-6.3%	-0.4%	CCOC(=O)c1nn(C)c2[nH]c(=O)n(C)c(=O)c12	/
7.0	-6.4%	-3.4%	Cc1nn(Cc2c(F)cccc2Cl)c(C)c1[N+](=O)[O-]	1.1%
10.1	13.2%	6.4%	CCOC(=O)C1=C(C)OC(N)=C(C#N)C1c1cc(F)ccc1F (configuration not stated)	0.2%
-17.7	0.4%	0.6%	COc1ccc(Oc2nc(-c3ccncc3)nc3ccccc23)cc1	0.0%
-3.7	-11.0%	-4.6%	COc1ccc(CN2CCN(c3ccccn3)CC2)cc1OCc1ccccc1	11.4%
/	-18.4%	-2.0%	CCN(CC)c1ccc(C2Nc3cccc4cccc(c34)N2)cc1	-0.8%
0.3	-16.3%	?	CCCCn1c(/C=N/Nc2nc3ccccc3[nH]2)nc2ccccc21	-0.4%
